Cruzain noTriton = qHTS Assay for Promiscuous and Specific Inhibitors of Cruzain (without detergent) | purified cruzain, Z-FR-AMC fluorescence, no detergent | 200,000 tested, 2.3% active | Potency, µM, without a hit: max response, negative = inhibition, hits mostly inhibitors; active = well fitted curve in the direction sought with a large enough effect; inconclusive = small, poorly fitted or top-dose-only effect, or another doubt; inactive = no such curve, though single readings can be large; an effect the other way counts as inactive or inconclusive;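 note: plate controls were enzyme without inhibitor for no effect and buffer without enzyme for full effect; nearly all actives have a fitted effect of over 40% in size; top concentration of the series not given in the record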
Target sequence (P25779 123-467 limits assumed): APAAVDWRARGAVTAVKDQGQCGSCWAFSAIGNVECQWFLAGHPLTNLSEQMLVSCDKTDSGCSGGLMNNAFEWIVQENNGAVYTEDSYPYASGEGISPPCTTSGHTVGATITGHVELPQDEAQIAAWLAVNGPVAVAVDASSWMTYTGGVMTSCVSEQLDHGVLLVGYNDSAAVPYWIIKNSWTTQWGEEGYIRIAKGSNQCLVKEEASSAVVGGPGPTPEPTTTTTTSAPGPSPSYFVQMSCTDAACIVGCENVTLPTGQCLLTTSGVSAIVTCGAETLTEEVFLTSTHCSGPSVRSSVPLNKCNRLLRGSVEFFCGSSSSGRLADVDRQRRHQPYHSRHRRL
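Purified cruzain at 1.5 nM, pre-incubated 15 min with compound at room temperature in 100 mM sodium acetate pH 5.5, 5 mM DTT, 0.00005% Triton X-100. Reaction started with 2 uM Z-FR-AMC; AMC fluorescence increase over 60 s gives rate.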
StopGo reporter = High Throughput Screening for Foot and Mouth Disease Virus Antivirals; 410,000 tested, 1.2% active; human cells with a luciferase reporter of 2A StopGo recoding; control for the full effect not named in the record; Potency, µM (top dose mostly 57.9 µM), inactives show at the top dose signal change, negative = less light; active = well fitted falling curve with a large enough effect; inconclusive = small, poorly fitted or top-dose-only effect; inactive = no such curve, though single readings can be large or run the other way; tested in HEK293T cells; note: % is set by controls: 0 for no effect and ±100 for the full control effect; nearly all actives have a fitted effect of over 45% in size; luciferase light after 4 h
NS1 function inh = qHTS Assay for Inhibitors of Influenza NS1 Protein Function; S. cerevisiae slowed by influenza A NS1, growth recovery by OD600; Potency, µM (doses to about 46.1 µM), for the others: top-dose activity, positive = more growth; 270,000 tested, 0.4% active; note: actives are rising curves; nearly all actives have a fitted effect of over 50% in size
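Read-out: OD600 growth recovery of NS1-expressing budding yeast. Cells grown overnight at 30C in -URA glucose medium, washed, resuspended and diluted 1:100 in 2% galactose assay medium, pH 6.0. Same strain lacking NS1 served as positive control.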
Lassa entry inh = qHTS for Inhibitors of binding or entry into cells for Lassa Virus. 300,000 tested, 1.2% active. Potency, µM (highest dose often 37.9 µM), without a hit: at the top dose activity change, negative = inhibition, actives largely listed as inhibitors. Lassa virus pseudotype entry inhibition, cell reporter; control for the full effect not named in the record; active means well fitted inhibition curve with a large enough effect; inconclusive means small, poorly fitted or top-dose-only effect, or effect the other way; inactive means flat fitted curve, though single readings scatter; tested in HEK293 cells; note: % is set by controls: 0 for no effect and ±100 for the full control effect; nearly all actives have a fitted effect of over 50% in size; luciferase read-out
Cruzain inh Det = qHTS Assay for Promiscuous and Specific Inhibitors of Cruzain (with detergent) | Cruzipain (Trypanosoma cruzi), P25779 | purified cruzain, Z-FR-AMC fluorescence, 0.01% Triton | Potency, µM, inactives show max response, negative = inhibition, usual class: inhibitors | 200,000 tested, 0.43% active | AID 1478, 2009; active = well fitted curve in the direction sought with a large enough effect; inconclusive = small, poorly fitted or top-dose-only effect, or another doubt; inactive = no such curve, though single readings can be large; an effect the other way counts as inactive or inconclusive;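 note: plate controls were neutral wells for no effect and buffer without enzyme for full effect; nearly all actives have a fitted effect of over 40% in size; top concentration of the series not given in the record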
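In this qHTS format, compounds are incubated with 1.5 nM cruzain for 15 min at room temperature before 2 uM Z-FR-AMC is added. Release of AMC is followed at 360/450 nm, and progress is taken as the 60 s fluorescence difference.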
MARV entry inh = qHTS for inhibitors of binding or entry into cells for Marburg Virus; Marburg virus pseudotyped entry inhibition, cell reporter; control for the full effect not named in the record; about a third of the inactives were read at about 46 µM; Potency, µM (top dose mostly 37.8 µM), for inactives: at the highest dose activity change, negative = inhibition, hits mostly inhibitors; 300,000 tested, 1.8% active; AID 540276, 2011; active = well fitted inhibition curve with a large enough effect; inconclusive = small, poorly fitted or top-dose-only effect, or effect the other way; inactive = flat fitted curve, though single readings scatter; tested in HEK293 cells; about a fifth of its hits are not listed in these tables; note: % is set by controls: 0 for no effect and ±100 for the full control effect; luciferase read-out
RE007 growth inh = qHTS Assay for Inhibitors of the HIV-1 protein Vpr; S. pombe RE007 Vpr strain, BacTiter-Glo ATP luminescence, 24 h; control for the full effect not named in the record; Potency, µM (doses to about 92.2 µM), inactives show at the top dose activity change, negative = less growth; 360,000 tested, 0.21% active; active = well fitted falling curve with a large enough effect; inconclusive = small, poorly fitted or top-dose-only effect; inactive = no such curve, though single readings can be large or run the other way;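 note: % is set by controls: 0 for no effect and ±100 for the full control effect; nearly all actives have a fitted effect of over 50% in size; the assay follows cell death caused by Vpr and the record does not say whether a fall means rescue or toxicity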
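Fission yeast RE007 carrying one integrated HIV-1 vpr copy, seeded at OD 0.01 in PMG+AL medium with 23 nL pinned compound. Grown 24 h at 30 degrees; viability read by BacTiter-Glo luminescence after 5 min.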
SARS PLP yeast = qHTS of Yeast-based Assay for SARS-CoV PLP; S. cerevisiae expressing SARS-CoV PLpro, growth rescue; control for the full effect not named in the record; Potency, µM (highest dose often 32.9 µM), without a hit: at the highest dose activity, positive = growth rescue; 330,000 tested, 0.19% active; AID 485353, 2010; note: 0% is about no effect; nearly all actives have a fitted effect of over 55% in size; growth read by luminescence after 48 h
* hit, by the source's call; u = inconclusive; x = no result given; & = joins results of further samples; [ ] = remark or other dose. Unless noted, calls come from the whole dose curve; as a rule, active means well fitted rising curve with a large enough effect; inconclusive means small, poorly fitted or top-dose-only effect; inactive means no such curve, though single readings can be large or run the other way. Potency is the fitted concentration of half-maximal effect.

| molecule | Cruzain noTriton | StopGo reporter | NS1 function inh | Lassa entry inh | Cruzain inh Det | MARV entry inh | RE007 growth inh | SARS PLP yeast |
| --- | --- | --- | --- | --- | --- | --- | --- | --- |
| Cc1ccc(SCCN2CCN(C)CCC2=O)cc1 | x | 30.7%[activator] | -6.7% | x | x | x | -19.1% | -1.0% |
| CCn1cc(CN2CCC(n3nccc3NC(=O)c3ccc4c(c3)OCO4)CC2)c(C)n1 | x | -26.9% | 27.4% | 1.4% | x | -7.1% | 0.9% | -1.4% |
| Cc1ccc(NCc2nc3ccccc3n2CCOc2ccccc2)cc1 | -9.9%&-15.3% | 15.4%&41.1% | -2.7% | u | -10.4%&-8.0% | u | x | -74.2% |
| CC(C)CC(CCc1ccccc1)OS(N)(=O)=O (stereo not given) | x | 39.3%[activator] | 12.4% | x | x | x | -10.2% | 13.4% |
| COc1ccc(-n2c(-c3cnccn3)n[nH]c2=S)cc1 | -5.1% | 0.0% | 6.1% | 32.4%[14.3 µM] | 1.8% | 2.9% | -5.4% | -6.8% |
| Cc1nc(-c2ccc(C(=O)Nc3ccc(F)cc3)cc2)cs1 | x | -15.6% | 2.7% | u | x | 6.31µM* | -14.0% | 0.2% |
| NC(=Nc1ccccc1)NC(=O)c1nc(Cl)c(N)nc1N | u | 17.3% | -10.1% | u | -12.2% | u | 1.1%[18.4 µM] | x |
| CCc1cc(=O)oc2c(CNCc3ccccc3F)c(O)c(Cl)cc12 | x | -23.1% | -2.4% | x | x | x | 11.7% | -1.4% |
| CCCCN(CC)CCNC(=S)Nc1ccc2nc(N3CCN(C)CC3)cc(C)c2c1 | x | -11.5% | -6.4% | u | x | 3.55µM* | -3.6% | -2.7% |
| O=C(CC1S/C(=N/N=C2CCCCCC2)NC1=O)Nc1ccccc1C(F)(F)F (stereo not given) | x | -22.6% | 0.8% | x | x | -0.9%[46.1 µM] | -5.3% | -1.5% |
| CCCc1nn(C)c(C(=O)Nc2ccc(CC)cc2)c1Cl | 11.0% | 16.8% | -7.8% | -0.4% | -2.6% | 6.3% | -6.1% | -0.1% |
| COc1ccc(NS(=O)(=O)c2ccc(NC(=O)c3ccccc3Br)cc2)nn1 | x | -13.0% | -0.2% | u | x | 2.4%[46.1 µM] | 9.5% | 0.4% |
| S=c1[nH]nc(COc2ccccc2)n1/N=C/c1ccccc1Br | x | 10.3% | 4.5% | u | x | -3.9% | -22.2% | -1.3% |
| Cc1cc(C)n(-c2cc(Cl)cc(Cl)c2)c(=O)c1C#N | -5.8% | 0.0% | -3.9% | 9.3% | -2.9% | 1.1% | 1.3% | 0.1% |
| Cn1c(=O)c2c(nc(N/N=C/c3ccncc3)n2Cc2ccccc2)n(C)c1=O | x | u | 0.0% | -24.5% | x | -25.8% | -2.1% | 0.3% |
| CN(C)c1ncc(S(=O)(=O)c2ccccc2)c(N)n1 | x | -4.0% | -4.0% | 3.5%[46.1 µM] | x | 16.6%[46.1 µM] | -7.5% | -0.2% |
| CSCCC(NC(=O)c1ccccc1Br)C(=O)NC(C)CCc1ccccc1 (stereo not given) | x | 19.1% | -0.5% | u | x | -26.4% | 2.8% | 21.3% |
| CCOc1ccc(CNC(=O)c2cc3c(=O)n(Cc4cccs4)ccc3nc2C)cc1 | u | -10.0% | x | u | -2.4% | x | x | x |
| COc1ccc(N(C)C(=O)c2cc3c(s2)-c2ccc(Cl)cc2S(=O)(=O)C3)c(OC)c1 | x | 28.2µM* | 9.1% | x | x | x | -1.3% | 0.5% |
| CCc1nc2ccccc2c(C(=O)Oc2ccc(C(=O)OC)cc2)c1C | 7.7% | -1.4% | -4.7% | 0.5% | -2.5% | 11.7%[46.1 µM] | 27.7% | -4.0% |
| O=C(N/C(=C/c1cccc([N+](=O)[O-])c1)C(=O)N1CCCC1)c1ccccc1 | x | 28.2% | -4.5% | -1.3% | x | 6.5%[46.1 µM] | -0.4% | 0.4% |
| N#CC1(N2CCN(C(=O)c3ccccc3)CC2)CCCCC1 | x | -1.9% | 11.1% | x | x | x | 1.0% | -5.3% |
| Cc1ccc(-n2c(=O)[nH]c3sc4c(c3c2=O)CCNC4)cc1C | -7.2% | -4.5% | x | 28.8%[46.1 µM] | 0.8% | u | x | x |
| COc1cc(C(=O)Oc2c(OC)cc(C(=S)N3CCOCC3)cc2OC)cc(OC)c1OC | x | -1.7% | -2.2% | x | x | x | 35.4% | 2.7% |
| O=C(O)C1=NOC(CNc2ncc(C(F)(F)F)cc2Cl)C1 (stereo not given) | x | 33.7%[activator] | 5.0% | 18.3%[46.1 µM] | x | -10.7%[46.1 µM] | 6.0% | 2.7% |
| Cc1ccnc(N/C=C/C(=O)c2ccc(Br)cc2)c1 | x | -32.6% | -6.2% | u | x | u | 7.2% | -2.3% |
| Cc1ccc2c(c1)N(C(=O)CCC(=O)NCC(C)c1ccccc1)CC(C)O2 (stereo not given) | x | -3.4% | -6.8% | x | x | x | 5.9% | 1.5% |
| CCOC(=O)c1ccc(N2C(=O)c3n[nH]c(-c4ccco4)c3C2c2ccccc2OC)cc1 (stereo not given) | u | 22.4µM* | x | u | -8.7% | u | x | x |
| COc1ccccc1N1CCN(/N=C/c2ccc(O)c(O)c2)CC1 | x | 6.4% | 1.2% | -19.5%[46.1 µM] | x | u | 0.0% | 1.5% |
| Cc1c(OCC(=O)NCC(O)c2ccccc2)ccc2c(-c3ccccc3)cc(=O)oc12 (stereo not given) | x | -10.1% | 3.9% | x | x | x | -1.6% | -1.4% |
| O=C(N/C(=C/c1ccc(Br)cc1)C(=O)N1CCCC1)c1ccccc1F | 10.8% | -13.3% | -24.7% | -4.5% | -3.7% | 14.8% | -2.8% | 4.0% |
| Cc1nnc(N)s1 | x | -19.7% | 0.2% | x | x | x | 9.8% | 1.1% |
| O=C(CCCn1c(=O)[nH]c2ccccc2c1=O)N1CCN(c2ccccn2)CC1 | 8.3% | -13.0% | 1.6% | 3.1% | -0.4% | 17.5% | 3.4% | 8.4% |
| CC(NC(=O)C(=O)NCCCn1ccnc1)c1ccccc1 (stereo not given) | x | -3.5% | 2.6% | -0.5% | x | u | -2.5% | 0.3% |
| Nc1nnc(SCC(=O)OCc2ccc(F)cc2)s1 | 6.3% | -5.6% | 3.9% | -2.4% | -2.7% | 7.7% | 2.8% | 1.2% |
| N#CC1=C2SCC(O)(c3ccccc3)N2C(=O)CC1c1ccccc1 (stereo not given) | -18.7% | u | -0.4% | u | -2.8% | u | 0.6% | u |
| CCOc1cc(/C=N/NC(=O)c2cccnc2)ccc1OCc1ccc(C(=O)OC)o1 | x | -20.3% | 9.8% | x | x | x | 10.5% | 1.0% |
| COc1ccc(CN(C)S(=O)(=O)c2nnc(NC(=O)c3ccc(C)cc3)s2)cc1OC | x | 9.2% | 5.8% | x | x | x | 20.6% | 16.3% |
| CN(Cc1ccccc1)C(=O)c1cccc(N2C(=O)C3CC=CCC3C2=O)c1 (stereo not given) | x | -15.8% | 3.8% | x | x | x | -6.5% | 0.5% |
| NC(=O)C[C@@H]1N[C@]2(C(=O)Nc3ccccc32)[C@@H]2C(=O)N(C3CCCCC3)C(=O)[C@H]12 | 0.4% | -2.1% | -2.9% | 4.9% | 1.7% | 6.8% | 13.4% | -0.5% |
| O=C(CSc1nn(-c2ccccc2)c(=S)s1)Nn1cnnc1 | -3.0% | 8.9% | -10.2% | u | 4.3% | 3.8% | 5.8% | 22.3% |
| O=C(O)C1CCN(S(=O)(=O)c2ccc(N3CCCC3C(=O)O)c([N+](=O)[O-])c2)CC1 (stereo not given) | x | -3.8% | 7.6% | -1.5%[46.1 µM] | x | 0.0%[46.1 µM] | -13.6% | 6.1% |
| NC(=O)COC(=O)[C@H](Cc1c[nH]c2ccccc12)NC(=O)c1ccc(F)cc1 | x | 23.1% | 13.3% | -1.7%[46.1 µM] | x | 2.0%[46.1 µM] | 4.1% | 2.1% |
| O=C1Nc2cc(C(=O)N3CCN(Cc4ccccc4)CC3)ccc2SC1N1CCOCC1 (stereo not given) | 9.7% | -25.0% | -10.9% | 10.1% | 8.5% | 6.0% | -2.2% | 3.9% |
| CC(C)(C)C(=O)NCc1ccc(C(=O)CN2C(=O)NC3(CCCC3)C2=O)s1 | x | -14.9% | x | -2.4%[46.1 µM] | x | u | -11.5% | 4.7% |
| COc1cccc(CNC(=O)C2CCN(S(=O)(=O)c3ccc4c(ccn4C)c3)CC2)c1 | -11.5% | -2.5% | x | -11.6%[46.1 µM] | -2.2% | x | x | x |
| CC(c1nc2ccccc2c(=O)[nH]1)N(C)c1ccc2ccccc2c1 (stereo not given) | 6.9% | -1.1% | 19.9% | -2.4% | -4.8% | 13.9% | 4.4% | 11.7% |
| CCNCCC(=O)N1c2ccccc2Sc2ccc(C(F)(F)F)cc21 | x | 0.0% | 3.7% | u | x | -3.4% | -7.4% | 3.1% |
| CCOc1ccc(OCC)c(NS(=O)(=O)c2c(C(=O)N3CCC(C)CC3)c(C)n(C)c2C)c1 | u | 42.7%[activator] | x | -9.6%[46.1 µM] | 0.8% | x | x | x |
| COc1ccc2oc(=Nc3cccc(F)c3)c(C(N)=O)cc2c1 | x | 3.1% | x | u | x | u | -4.4% | 0.5% |
| CC1(C)CC(=O)C2=C(C1)Nc1ccccc1[S@]2=O | x | 13.4% | -0.5% | u | x | -26.0%[46.1 µM] | 1.2% | -0.8% |
| COc1ccc(N2C(=O)CSC23CCC(C(C)(C)C)CC3)cc1 (stereo not given) | u | 7.4% | -4.4% | u | -8.0% | -11.3% | 10.3% | 2.3% |

Rows were taken by chance; about 4.7% have a hit in one of these screens.
